Screens (PubChem)
Vaccinia mCherry = inhibitors of vaccinia virus infection (mCherry reporter signal). Vaccinia virus mCherry reporter infection, fluorescence; about a quarter of the inactives have no number. Potency, µM (top dose mostly 36.5 µM), without a hit: at the highest dose activity change, negative = inhibition, actives largely listed as inhibitors. 310,000 compounds, 0.63% hits; active = well fitted inhibition curve with a large enough effect; inconclusive = small, poorly fitted or top-dose-only effect; inactive = no such curve, though single readings can be large or run the other way; tested in A549 cells; further: nearly all actives have a fitted effect of over 35% in size; inactives centre near -10
VACV Venus inh = inhibitors of vaccinia virus (Venus reporter). Vaccinia virus Venus reporter expression, fluorescence. Potency, µM (doses to about 36.5 µM), for the others: at the top dose activity change, negative = inhibition, usual class: inhibitors. 330,000 compounds, 0.46% hits. AID 720580; active means well fitted inhibition curve with a large enough effect; inconclusive means small, poorly fitted or top-dose-only effect; inactive means no such curve, though single readings can be large or run the other way; tested in A549 cells; further: nearly all actives have a fitted effect of over 30% in size; inactives centre near -10
* marks the source's active call; other numbers are inactive results; i = inactive; ? = inconclusive; · = not tested or not shown; & = joins results of further samples; [ ] = another dose, or the depositor's remark. On the % scale 0 is the no-effect control and ±100 the full control effect; potency means the concentration at half of the fitted maximal effect.

SMILES	Vaccinia mCherry	VACV Venus inh
CCN(CC)CCN(C(=O)c1ccc(S(=O)(=O)N(CC)c2ccccc2)cc1)c1nc2c(OC)ccc(OC)c2s1	-24%	-19%
Cc1ccc(OCC(=O)NNC(=O)C2CCN(c3nccc(C)n3)CC2)cc1	i	0%
CCOC(=O)[C@H]1[C@H]2COc3cc(OC)ccc3[C@@H]2N2C(=O)c3cc(OC)c(OC)cc3NC(=O)[C@@]12C	-12%	-13%
CCOC(=O)C(NC(C)=O)C(=O)Nc1ccc(C)cc1C (centres undefined)	i	-12%
COc1cc(Cl)c(C)cc1NC(=O)c1cnc(N2CCOCC2)c2ccccc12	-14%	-24%
COc1ccc(N2CCN(C3CCN(S(=O)(=O)c4ccc(F)cc4)CC3)CC2)cc1	9%	3%
CCC(C)N1CCCCC1C(=O)Nc1c(C)cc(C)cc1C (centres undefined)	-12%	2%
CC(=O)/C(N=Nc1nc2c([nH]1)c(=O)n(C)c(=O)n2C)=C(\C)O	-11%	-15%
CCC(C)(C)NC(=O)CN(CCc1cccc(C)c1)C(=O)c1csnn1	-5%	-10%
COc1cc2c(cc1OC)NC(=O)C2	-3%	-5%
Cc1ccc(Cc2c(C)nc3nc(SCC(=O)NC(C)c4ccccc4)nn3c2C)cc1 (centres undefined)	-13%	-14%
C/C(=N\Nc1ccc([N+](=O)[O-])cc1)c1ccc(-n2nncc2C)cc1	?	?
CNC(=O)O/N=C(\N)Cc1csc2ccc(Cl)cc12	i	-16%
Cc1ccc(C2=NN(S(=O)(=O)c3ccccc3)C(c3ccccc3O)C2)cc1 (centres undefined)	?	-18%
CC(C)c1ccc(NC(=O)C2(C)Cc3c(-c4ccc(N(C)C)cc4)ccnc3O2)cc1 (centres undefined)	i	-10%
CC(=O)Nc1ccc(NC(=O)Cn2c(=O)n(-c3ccccc3)c(=O)c3oc4ccccc4c32)cc1	3%	-10%
C/C(CC(=O)Nc1ccc(Cl)cc1C(F)(F)F)=N\NC(=O)c1ccccn1	-23%	-14%
c1ccc(-c2noc(CSc3nnc(Cc4cccs4)n3-c3ccccc3)n2)cc1	-2%	-19%
COc1ccccc1C(=O)Nc1ccc2nc(N3CCC(C)CC3)cc(C)c2c1	-23%	-17%
Cc1cc(NC(=O)c2cc3ccccc3oc2=O)no1	-7%	-7%
COc1ccc(-c2ccnc3c(C#N)cnn23)cc1	-15%	-9%
Cc1ccc(S(=O)(=O)N(C)C)cc1NC(=O)COC(=O)c1ccc2c(c1)OCO2	i	-23%
CC(C(=O)NCC1CCCCC1)N(C)CC(=O)Nc1ccc(N2CCOCC2)cc1 (centres undefined)	-1%	-2%
C[C@H](CO)N1C[C@H](C)[C@@H](CN(C)C(=O)Nc2ccc3c(c2)OCO3)Oc2c(cccc2N(C)C)C1=O	i	-4%
Cc1csc(=O)n1CC(=O)OC(C)C(=O)Nc1ccc(N(C)C)cc1 (centres undefined)	-4%	-8%
CN(Cc1ccccc1)C(=O)CCS(=O)(=O)c1ccc2c(c1)n(C)c(=O)c(=O)n2C	0%	2%
Cn1c(=O)c2c(nc(SCc3ccc(F)cc3)n2C)n(C)c1=O	i	-7%
COc1ccc(CC(=O)Nc2nnc3n2CCS3)cc1	-3%	0%
COc1ccc(NC(=O)CSc2nc3c(cc2C#N)CN(C)CC3)cc1	-3%	-15%
O=C(O)Cn1ccc2cc(S(=O)(=O)N3CCCCC3)ccc21	i	-8%
COc1cccc(CNc2ccc(F)c([N+](=O)[O-])c2)c1O	-28%	-20%
Cn1c(=O)oc2cc(S(=O)(=O)N3CCC(C(=O)N4CCN(c5cccc(Cl)c5)CC4)CC3)ccc21	-19%	-12%
CCCCNC(=O)c1ccc2c(=O)n(-c3ccccc3)c(=O)[nH]c2c1	-1%	0%
Cc1ccc(CCN=c2c([N+](=O)[O-])nn(-c3ccccc3)n2O)cc1	-16%	-15%
CC(C)CC(=NNC(=O)c1ccncc1)c1cc(Cl)ccc1O	5.6µM*	?
O=C(Nc1ccccc1)N1CCc2ccccc2C1	-21%	-17%
Cc1ccc(NC(=O)CCN2CCN(CCO)CC2)cc1Br	-3%	-10%
Cc1cnc(C)c(Nc2nc(C(N)c3ccccc3)cs2)n1 (centres undefined)	26%	-8%
CC(C)NS(=O)(=O)c1ccc(NC(=O)c2cccnc2)cc1	i	-16%
O=C1NC2(O)C(=O)c3ccccc3C2(O)N1 (centres undefined)	-6%	1%

The last two compounds of the section above lead into the next.
SMILES	Vaccinia mCherry	VACV Venus inh
CC(C)NS(=O)(=O)c1ccc(NC(=O)c2cccnc2)cc1	i	-16%
O=C1NC2(O)C(=O)c3ccccc3C2(O)N1 (centres undefined)	-6%	1%
CC1(C)OC(=O)C2=C(C[C@@H](C3CCCCC3)O[C@H]2c2ccc(F)cc2)O1	10%	-8%
CCN(CC)C(=O)c1[nH]cnc1C(=O)N[C@H](C)c1ccccc1	-14%	-5%
NC(=O)C1(N2CCCCC2)CCN(C2CC(=O)N(CCc3ccccc3)C2=O)CC1 (centres undefined)	·	-7%
CCCNC(=O)C1(CC2CC(c3ccccc3)=NO2)CCN(C(=O)C2(C)CC2)CC1 (centres undefined)	-14%	-5%
CC1=C(C(=O)Nc2ccccc2C)C(c2ccc(C)o2)C2=C(CCCC2=O)N1 (centres undefined)	i	-4%
COc1ccc(C(=O)OCC(=O)c2ccc(C)c(S(=O)(=O)N3CCOCC3)c2)cc1OC	i	-6%
S=C(Cc1ccccc1)NCCc1ccccc1	-12%	-11%
CC(OC(=O)CC1CCCC1)C(=O)Nc1ccc(S(N)(=O)=O)cc1 (centres undefined)	i	-1%
O=C(NCCc1ccccn1)c1c(-c2ccsc2)sc2ccccc12	-20%	0%
Cc1onc(-c2ccccc2)c1C(=O)NN1CCOCC1	-14%	-6%
CCOC(=O)N1CCN(S(=O)(=O)c2ccc(C(=O)N(CCN(CC)CC)c3nc4c(C)cccc4s3)cc2)CC1	-23%	-10%
CCc1nnc(NC(=O)NC(C)(C)C)s1	·	-10%
O=c1c2ccccc2sn1-c1ccc(S(=O)(=O)N2CCCC2)cc1	-3%&-17%	7%&-10%
Cc1ccc2cc3cc(C(=O)Nc4ccc(F)cc4Cl)oc3nc2c1	-3%	3%
CCCc1nnc(SCc2ccc(C(=O)OC)o2)n1N	·	-14%
Cc1ccc(C(=O)CCC(=O)N2CCN(C(=O)c3ccco3)CC2)cc1	1%	-24%
CCOc1ccc(NC(=O)Cn2nnc(C(=O)NCc3ccc(OC)cc3)c2N)cc1	-9%[7.34 µM]	0%[7.34 µM]
Cn1ncc(C(=O)N2CCN(c3ccccc3)CC2)c1C1CCN(C(=O)OC(C)(C)C)CC1	-14%	-15%
CCCCNc1c(-c2ccc(Sc3ccc(OC)cc3)cc2)nc2cc(C)ccn12	?	?
Cc1sc2ncnc(N(C)CCc3ccccn3)c2c1C	-2%	-9%
N#Cc1ccc(NC(=O)c2nc(-c3ccccc3)n(-c3ccccc3)n2)cc1	i	-7%
COc1ccc2[nH]c(CN3CCC(n4nccc4NC(=O)C4CC4)CC3)c(C)c2c1	i	-5%
Cc1ccc(C(=O)NCC(=O)OCC(=O)N2CC(C)OC(C)C2)cc1 (centres undefined)	-1%	-18%
Cc1ccccc1C(=O)Nc1cccc(-c2nnc(SCC(=O)NCc3ccco3)n2C)c1	-16%	-15%
COc1ccc(/C=N/NC(=O)c2cccc(NC(=O)c3ccccc3Cl)c2)cc1	?	-24%
Cc1ccc(OCCCN2CCC(C(O)(c3ccccc3)c3ccccc3)CC2)cc1	?	?
COc1ccc(CCNC(=O)CN2CCC(n3nnc4cc(F)ccc43)CC2)cc1OC	i	-15%
COC(=O)CCCNC(=O)c1ccc(S(=O)(=O)NCc2ccco2)cc1	-19%	-5%
CCCc1nn2c(=O)cc(COC(=O)c3cccc(NC(=O)COc4ccccc4C)c3)nc2s1	-8%[7.34 µM]	-8%[7.34 µM]
Clc1ccccn1	-4%	-11%
CN=c1scc(-c2ccc([N+](=O)[O-])cc2)n1/N=C/c1ccco1	-5%	-10%
COc1cccc(C2C(C(=O)Nc3cccnc3)=C(C)Nc3nc(SCc4ccccc4)nn32)c1 (centres undefined)	-5%	-2%
C=CCN(c1ccccc1)S(=O)(=O)c1c(C)[nH]c(=O)[nH]c1=O	-13%	-3%
CCCOc1ccccc1C1Oc2nc(SC)nnc2-c2ccccc2N1C(C)=O (centres undefined)	-5%	1%
CCOc1ccc(NC(=O)CSc2cn(CCNC(=O)c3ccccc3F)c3ccccc23)cc1	-12%	-7%
CCc1nc2cc(C(=O)NC3CCS(=O)(=O)C3)cc(NC(=O)c3ccccc3OC)c2n1C (centres undefined)	i	-9%
CCCCCCCCCCCCCCCC[N+](C)(C)Cc1ccc(F)cc1	-24%	?
COc1ccc(OCC(=O)N/N=C(\C)CC(=O)Nc2ccc(NC(C)=O)cc2)cc1	-25%	-12%
Cc1ccc(NC(=O)c2cc(-n3cnnc3)ccc2Cl)c(C)c1	-29%	-10%
O=C1CCC[C@@H]2CC(Nc3ccc(F)cc3F)C[C@@H]3CCN1[C@H]23 (some centres undefined)	i	-3%
NC(=O)CCCc1nc(-c2ccccc2Cl)no1	-7%	-10%
CN(Cc1ccccc1)C(=O)COC(=O)c1cc(S(=O)(=O)N(C)C)ccc1N1CCCC1	-22%	-13%
CCn1c(=O)cc(O)c2c(=O)n(C)c(=O)n(C)c21	-7%	-7%
CN(C)S(=O)(=O)c1cccc(C(=O)Nc2cc(Cl)ccc2O)c1	·	?
CCOC(=O)N1CCN(S(=O)(=O)c2ccc(F)c(C(=O)Nc3ccc(C(C)C)cc3)c2)CC1	0%	-18%
C[C@@H]1CN([C@H](C)CO)C(=O)CCCn2nncc2CO[C@@H]1CN(C)C(=O)OCc1ccccc1	i	-9%
FC(F)(F)c1cccc(NC(=S)NCc2ccc(Cl)cc2)c1	-8%	?
Cc1ccc(C(=O)OCC(=O)N(C)C2CCS(=O)(=O)C2)cc1S(=O)(=O)N1CCCCC1 (centres undefined)	i	-10%
O=C(NS(=O)(=O)c1ccccc1)c1ccccc1F	-14%	-10%
COc1ccc(-n2cc(-c3ccccc3)[nH]c2=S)cc1	-22%	-9%

Among those listed so far, these contain a thiophene ring, fused or not.
SMILES	Vaccinia mCherry	VACV Venus inh
CNC(=O)O/N=C(\N)Cc1csc2ccc(Cl)cc12	i	-16%
c1ccc(-c2noc(CSc3nnc(Cc4cccs4)n3-c3ccccc3)n2)cc1	-2%	-19%
O=C(NCCc1ccccn1)c1c(-c2ccsc2)sc2ccccc12	-20%	0%
Cc1sc2ncnc(N(C)CCc3ccccn3)c2c1C	-2%	-9%

Following part.
SMILES	Vaccinia mCherry	VACV Venus inh
Cc1ccc(C(=O)c2ccccc2C(=O)OCC(=O)Nc2ccc(SC(F)F)cc2)cc1	?	?
COc1ccccc1NS(=O)(=O)c1cc(C(=O)NCC2CCCO2)ccc1C (centres undefined)	-23%	-11%
CCc1ccc(NC(=O)C(=O)NCCN2CCN(S(=O)(=O)c3ccccc3)CC2)cc1	-9%	4%
Cc1cc(NC(=O)Nc2ccccc2)n(-c2ccccc2)n1	0%	-4%
Cc1cc(C)cc(NC(=O)C2CCCN2S(=O)(=O)c2ccc3c(c2)CCCC(=O)N3)c1 (centres undefined)	-12%	-8%
COc1ccc(CNC(=O)c2sc(=O)n(Cc3ccc(C)cc3)c2C)cc1	i	-1%
O=C(NCCCN1CCOCC1)C(Cl)(Cl)Cl	-2%	16%
CCC(C)c1ccc(NC(=O)CN(C)CC(=O)Nc2cccc(OC)c2)cc1 (centres undefined)	i	-5%
COc1ccc(Cn2c(-c3ccco3)nc3oc4ccccc4c(=O)c3c2=O)cc1	-11%	?
CCOC(=O)n1c(=O)n(Cc2cccc(C)c2)c2ccccc21	-4%	0%

Part of the list above, as labelled records.
> Cc1cc(C)cc(NC(=O)C2CCCN2S(=O)(=O)c2ccc3c(c2)CCCC(=O)N3)c1 (centres undefined)
  Vaccinia mCherry: -12%
  VACV Venus inh: -8%

> COc1ccc(CNC(=O)c2sc(=O)n(Cc3ccc(C)cc3)c2C)cc1
  Vaccinia mCherry: i
  VACV Venus inh: -1%

> O=C(NCCCN1CCOCC1)C(Cl)(Cl)Cl
  Vaccinia mCherry: -2%
  VACV Venus inh: 16%

> CCC(C)c1ccc(NC(=O)CN(C)CC(=O)Nc2cccc(OC)c2)cc1 (centres undefined)
  Vaccinia mCherry: i
  VACV Venus inh: -5%

The listing continues.
SMILES	Vaccinia mCherry	VACV Venus inh
COc1cc(CCCN2CCNC[C@@H]2c2ccccc2)cc(OC)c1OC	-6%	-25%
COc1ccc(NC(=O)N(C)C[C@H]2OCc3cnnn3CCCC(=O)N([C@@H](C)CO)C[C@H]2C)cc1	-10%	-10%
CCOC(=O)c1ccccc1NC(=O)C1CSC2(C)CCC(=O)N12 (centres undefined)	i	-10%
COc1ccc(NC2SC(=O)N(CC(=O)O)C2=O)cc1 (centres undefined)	i	-15%
Cc1cc(NCCO)nc(-n2nc(C)cc2C)n1	·	-1%
N#C[C@@H]1N(Cc2ccccc2)C(=O)[C@H]2CC3C=CC21O3 (some centres undefined)	?	-13%
O=C(Cn1c(=O)n(-c2ccc(F)cc2)c(=O)c2sc3ccccc3c21)N1CCCC1	7%	8%
CC(C)Cc1nc(C#N)c(N2CCC(C(N)=O)CC2)o1	-14%	-13%
CCOc1ccc(-c2cc(C(=O)N3CCN(S(=O)(=O)c4cc(Cl)ccc4OC)CC3)[nH]n2)cc1	?	?
CC1CC1C(=O)OCC(=O)Nc1ncc(Cl)cc1Cl (centres undefined)	-16%	2%
